Dynein transport – inhibitors of GR-EGFP nuclear translocation, primary screen, dynein cargo transport inhibitor project, imaging, high-content, 3617.4 mouse cells. 220,000 compounds, 0.47% hits. test concentration mostly 20 µM; stimulated with dexamethasone, 1 µM; active compounds read low. z-score, hits read low;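 active = plate z-score of nuclear minus cytoplasmic receptor signal below a set negative limit, without overly bright fluorescence or cell loss, cut at about -3.5 in these data, passing the limit was not always enough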;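 also: z-score of nuclear minus cytoplasmic ring GR-EGFP intensity difference per well; some compounds called inactive have numbers as strong as hits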
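Buffer or medium: tetracycline-free induction medium containing charcoal-stripped FBS / Reagent: dexamethasone agonist, 1.0 µM final, for 30 min / Technique: automated 10x imaging of fixed Hoechst-stained cells / Times: induction 48 h, compound 1 h, agonist 30 min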
Ins promoter up – insulin promoter activators in MIN6 cells, imaging, high-content screening, mouse beta cells | MIN6 insulin promoter-GFP reporter; active compounds read high | z-score at 5 µM | 190,000 compounds, 0.3% hits;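 active = z-score above 3 at 5 µM with at least 500 cells counted in the well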
Hep lipid drop – inhibitors of hepatocyte lipid droplet formation, primary screen, imaging, high-throughput imaging, BODIPY stain; AML12 mouse hepatocytes, oleate lipid droplets; inhibition, % at 6.5 µM; 240,000 compounds, 0.4% hits; AID 1656, 2009;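 active = lipid droplet intensity inhibited by at least 50%, with more than 500 cells counted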
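Technique: fluorescence imaging, 20x objective, two fields per well / Assay system: AML12 hepatocytes (mouse) / Measure: % inhibition of lipid droplet signal / Doses: 6.5 µM single-point dosing / Incubation: overnight exposure / Reagent: 100 µM oleic acid challenge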
MT stabilize HCS – microtubule stabilizers in HeLa cells, primary screen, imaging, high-content imaging | HeLa tubulin immunostaining HCS, 24 h; share of cells brighter than vehicle mean+2SD | % tubulin-high responders, % at 10 µM | 200,000 compounds, 0.83% hits | AID 2205, 2009;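 active = plate Z-score above 3 for both tubulin-high and condensed-nucleus cell shares, with cell loss under 80%, at 10 µM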;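 also: anti alpha tubulin signal scored within the nucleus-defined area of each cell; some results filed as inactive read as strong as hits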
Yfh1-depleted yeast – enhancers of respiration in Yfh1-depleted yeast, dose response, Friedreich's ataxia, plus single-dose screen (AID 1465); S. cerevisiae Yfh1-off respiration, WST-1 reduction, 72 h; higher fold induction means a stronger effect; one-dose fold induction at 50 µM; EC50 in µM for titrated hits; 220,000 compounds, 0.074% hits;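 active = fold induction of absorbance versus untreated yeast above a set limit, then at least 30% activation at any dose in follow-up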;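 also: activators that raise dye reduction in frataxin-depleted yeast; strong numbers were not always called active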
Autophagy mod – autophagy modulators in MEF cells, primary screen, imaging, high-content, MEF GFP-LC3 | calls only at 10 µM (by protocol) | MEF GFP-LC3 puncta imaging; test concentration mostly 10 µM | 190,000 compounds, 0.98% hits;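 active = percentage of spot-positive cells more than 3 SD above its plate mean, without a fluorescence outlier flag or 80% toxicity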;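 also: spot-positive cell cutoff set from DMSO-treated cells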
WT yeast gro inh – growth inhibition of WT strain, primary screen, mitochondrial fusion inhibitor project, WT and mutant strains, chemical genetic; mitochondrial fusion phenotypic screen; inhibition, % at 10 µM; 190,000 compounds, 2.1% hits; in the data active = inhibition above about 58%; tested in S. cerevisiae
WT yeast gro inh mutant strain – recorded beside WT yeast gro inh, whose call it bears; inhibition, %; mitochondrial fusion phenotypic screen, mutant strain inhibition
Dynein transport cytoplasmic EGFP – recorded beside Dynein transport, whose call it bears; z-score; measured here: cytoplasmic GR-EGFP intensity; active compounds read high
Dynein transport nuclear GR-EGFP – second read-out of Dynein transport, no call of its own (marks repeat the call); z-score; measured here: nuclear GR-EGFP intensity;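 lower value marks the stronger effect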
Dynein transport cell count – recorded beside Dynein transport, whose call it bears; z-score; measured here: cell count per field
Ins promoter up cell count – recorded beside Ins promoter up, whose call it bears; cell count; measured here: cytotoxicity, nuclei count;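 total cells summed across four imaged fields per well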
Hep lipid drop cells 6.5 µM – second read-out of Hep lipid drop, no call of its own (marks repeat the call); cell count; measured here: cell count, cytotoxicity flag;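 cells counted across two imaged fields per well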
MT stabilize HCS Hoechst-high % – further read-out of MT stabilize HCS, marked with its call; % Hoechst-high responders; measured here: nuclear condensation Hoechst responders;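 share of cells brighter than vehicle mean plus two SD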
MT stabilize HCS cytotoxicity % – second read-out of MT stabilize HCS, no call of its own (marks repeat the call); toxicity, %; measured here: cytotoxicity by cell density;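 0% = mean cell density of plate MIN control wells and 100% = no cells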
Autophagy mod cell loss 18 h – second read-out of Autophagy mod, no call of its own (marks repeat the call); toxicity, %; measured here: cell loss, nuclei count;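 cell loss after 18 h compound exposure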
An asterisk follows results filed as active; i = inactive; nt = no result given; & = joins results of further samples.

SMILES	Dynein transport	Dynein transport cytoplasmic EGFP	Dynein transport nuclear GR-EGFP	Dynein transport cell count	Ins promoter up	Ins promoter up cell count	Hep lipid drop	MT stabilize HCS	MT stabilize HCS Hoechst-high %	MT stabilize HCS cytotoxicity %	Yfh1-depleted yeast	Autophagy mod	Autophagy mod cell loss 18 h	WT yeast gro inh	WT yeast gro inh mutant strain	others
CC(=O)NC1(NC(C)=O)CCN(C)C(c2ccccc2)C1C (stereo not given)	-0.59	-0.2	-0.092	0.39	0.27	1783	8	5.9	2.0	4.8	i	i	-16	8	-9	Hep lipid drop cells 6.5 µM=607
O=C1NC(=O)C(c2ccccc2)(c2ccccc2)N1	-0.32&0.8&0.46	-0.031&-0.27&-0.27	0.36&0.44&0.43	1.1&-0.18&0.45	0.28	901	-5&-10&1	2.3&1.5&3.9	2.9&1.0&3.2	11&5.3&5.1	i	i	20&-6&15	3&8&3	-2&-12&-5	Hep lipid drop cells 6.5 µM=766&712&742
O=C(/C=C/c1ccc(F)cc1)NCCC1=CCCCC1	-0.066	-0.22	-0.035	0.44	-0.14	1633	nt	1.7	1.4	7.3	i	i	-5	-3	-43
CCCCn1nc2cc(C(=O)NCc3ccc(OC)cc3)ccc2c1OCC	3.9	0.017	1.3	-0.97	1.7	1657	nt	2.9	1.0	0.7	i	i	5	-20	-24
Cc1ccccc1C(=O)Nc1ccccc1-c1nnn(CC(=O)Nc2ccc3c(c2)OCCO3)n1	0.63	0.14	1.1	-1.1	0.59	1580	nt	2.5	2.3	9.0	i	i	5	1	-29
c1ccc(-c2n[nH]c(-c3ccccc3)c2-c2nc3ccccc3[nH]2)cc1	-0.36	-0.24	-0.88	0.23	-0.32	1604	nt	3.7	1.5	7.3	i	i	-1	-11	5
Cc1ccc(NC(=O)Cn2nc(C)c3ccccc3c2=O)cc1F	0.56	-0.17	0.73	-0.6	-0.15	1095	nt	4.8	2.1	6.7	i	i	-10	21	19
Cc1ccc2nc(NC(=O)COC(=O)c3ccc(Br)o3)sc2c1	-0.57	-0.18	-1.1	-0.19	0.45	1448	nt	4.4	1.4	1.4	i	i	1	48	-3
O=C(O)c1c[nH]c(=S)n1-c1ccc(F)cc1	-0.16	-0.051	-0.87	0.78	1.1	1320	nt	4.0	2.1	11	i	i	0	-7	2
O=C(CNC(=O)/C(=C\c1ccccc1)NC(=O)c1ccc(Br)cc1)OCc1ccccc1	1.3	-0.13	0.27	-1.9	0.24	1429	nt	1.3	1.7	3.4	i	i	24	11	1
O=C(CN(Cc1ccco1)C(=O)c1ccccc1)Nc1ccc(Cl)c(Cl)c1	-0.085	0.19	0.0019	0.18	0.09	1574	nt	0.9	1.0	13	i	i	-5	43	20
CC(=O)Nc1ccc(S(=O)(=O)NCC2CCC(C(=O)NCCC(C)C)CC2)cc1 (stereo not given)	-0.71	-0.15	-0.46	0.67	-0.38	1420	nt	3.8	1.8	6.4	i	i	2	11	-4
CC(Sc1nc2ccccc2s1)C(=O)N1CCOCC1 (stereo not given)	0.96	-0.2	0.53	0.55	0.17	1341	nt	1.8	4.6	8.7	i	i	-6	8	-3
COc1ccc(-c2c(C)n([O-])c3c([n+]2=O)CCCC3)cc1	0.46	-0.13	-0.059	0.084	0.68	1487	nt	2.9	1.4	5.7	i	i	-5	19	4
COC(=O)COc1ccc(Cl)cc1C1Nc2ccccc2C(=O)N1c1ccc(OC)cc1 (stereo not given)	-0.5	0.082	0.18	1.1	-1.1	1481	nt	2.7	1.6	1.4	i	i	-29	-5	-8

Compounds from the list above containing a Cl atom (2):
SMILES	Dynein transport	Dynein transport cytoplasmic EGFP	Dynein transport nuclear GR-EGFP	Dynein transport cell count	Ins promoter up	Ins promoter up cell count	Hep lipid drop	MT stabilize HCS	MT stabilize HCS Hoechst-high %	MT stabilize HCS cytotoxicity %	Yfh1-depleted yeast	Autophagy mod	Autophagy mod cell loss 18 h	WT yeast gro inh	WT yeast gro inh mutant strain	others
O=C(CN(Cc1ccco1)C(=O)c1ccccc1)Nc1ccc(Cl)c(Cl)c1	-0.085	0.19	0.0019	0.18	0.09	1574	nt	0.9	1.0	13	i	i	-5	43	20
COC(=O)COc1ccc(Cl)cc1C1Nc2ccccc2C(=O)N1c1ccc(OC)cc1 (stereo not given)	-0.5	0.082	0.18	1.1	-1.1	1481	nt	2.7	1.6	1.4	i	i	-29	-5	-8

(cont.)
SMILES	Dynein transport	Dynein transport cytoplasmic EGFP	Dynein transport nuclear GR-EGFP	Dynein transport cell count	Ins promoter up	Ins promoter up cell count	Hep lipid drop	MT stabilize HCS	MT stabilize HCS Hoechst-high %	MT stabilize HCS cytotoxicity %	Yfh1-depleted yeast	Autophagy mod	Autophagy mod cell loss 18 h	WT yeast gro inh	WT yeast gro inh mutant strain	others
Cc1ccc(/C=N/n2nnnc2N)cc1[N+](=O)[O-]	0.81	-0.2	0.92	0.23	0.34	1246	nt	1.8	2.0	6.5	i	i	6	5	-6
Cc1ccc(/C=C/C(=O)Nc2cc(C)on2)cc1	0.5	-0.14	0.64	-0.33	0.33	1266	nt	3.3	2.4	0.3	i	i	0	29	-12
CC1(C)N=C(SCC(=O)Nc2ccccc2)C(c2ccc(Cl)cc2)=N1	2	0.27	1.2	-0.71	nt	nt	-32	1.3	1.1	11	i	i	2	8	11	Hep lipid drop cells 6.5 µM=786
Cc1ccc(C(=O)N(CN2CCCC2=O)c2ccccc2)cc1C	0.86	-0.25	0.48	-0.67	0.63	1560	nt	2.9	1.6	6.6	i	i	18	-12	-10
CCCNC(=O)c1ccccc1NC(=O)COc1ccc(OC)cc1	0.22	0.052	0.032	-0.099	nt	nt	9	3.1	1.7	11	i	i	5	1	-22	Hep lipid drop cells 6.5 µM=815
COC(=O)c1ccc(NC(=O)COc2ccc(C3C(C#N)=C(N)Oc4c3ccc3ccccc43)cc2OC)cc1 (stereo not given)	2.3	-0.029	0.72	-0.98	-0.88	1504	nt	4.2	1.6	0.1	i	i	2	-10	-30
COC(=O)c1ccc(COc2ccccc2/C=N/NS(=O)(=O)c2ccc(C)cc2)cc1	-0.85	-0.21	0.21	0.48	0.68	1498	nt	11	48	33	i	i	-28	15	1
CC(C)C(NS(=O)(=O)c1cccs1)C(=O)Nc1nc(C(C)(C)C)cs1 (stereo not given)	-0.25	0.098	0.42	0.84	-0.33	1548	nt	1.9	1.2	10	i	i	28	15	8
Cc1cc(C)cc(N(C(=O)c2csnn2)C(C(=O)NC(C)(C)C)c2cccs2)c1 (stereo not given)	-0.5	-0.21	-0.39	0.57	-0.9	1701	nt	0.9	1.1	5.8	i	i	-1	14	1
Cc1ccc(S(=O)(=O)/N=C(\c2ccc(Cl)cc2)N2CCOCC2)cc1	-0.087	-0.13	-0.23	0.18	0.07	1257	nt	1.8	1.9	7.0	i	i	-2	20	-1
CC(=O)c1c(C)[nH]c(C(=O)N2CCc3ccccc3C2)c1C	-0.62	-0.2	-0.3	0.59	0.56	1489	nt	2.9	2.6	8.0	i	i	0	12	2
Cc1ccc(OCCn2c(CCNC(=O)C(C)C)nc3ccccc32)cc1	-0.58	-0.22	0.31	0.34	-0.27	1679	nt	1.5	1.4	7.8	i	i	9	30	17
CCCOc1ccc2oc(=O)c3c(c2c1)CCCN3C(=O)CN1CCCC(C(=O)OCC)C1 (stereo not given)	-0.44	-0.29	-0.039	-0.0049	0.55	1582	nt	4.8	4.9	11	i	i	-4	0	-2
C=CCOC(=O)C1=C(C)NC(SC)=C(C#N)C1c1cccs1 (stereo not given)	-0.44	-0.21	-0.94	0.34	-0.07	1624	nt	38*	13*	49*	i	i	21	0	14
O=S(=O)(Cc1ccc(Cl)cc1)c1ccccc1-c1nnc(-c2ccc(Cl)cc2)o1	0.21	-0.31	0.33	0.11	-1.2	1572	nt	5.0	11	21	nt	i	16	9	5
CC(=O)N1N=C(c2ccc(C)o2)CC1c1ccc(Br)cc1 (stereo not given)	-0.5	-0.21	0.33	0.81	-0.45	1629	nt	2.8	1.8	3.0	i	i	-24	-11	-4
O=C1COc2ccc(OCc3ccc(F)cc3)cc21	-0.69	-0.17	-0.34	0.86	0.67	1337	nt	1.8	2.5	9.2	i	i	3	-8	-6
COc1cccc(NC(=O)N(C2CCCCC2)C(C)c2cccs2)c1 (stereo not given)	0.14	-0.18	-0.8	-0.55	-0.15	1517	nt	2.1	2.1	5.7	i	i	5	11	14
Cc1cccc(NC(=S)NC(=O)c2cc(-c3ccccc3)nc3ccccc23)c1	0.44	-0.19	0.75	-0.22	0.68	1541	nt	2.1	2.0	8.2	i	i	-12	-1	6
O=C(NCC1CCCO1)C1CC(=O)N(C2CCCCCC2)C1 (stereo not given)	4	-0.2	0.99	-1.1	-0.64	1604	nt	2.0	1.1	0.2	i	i	23	22	8
CCOC(=O)c1ccc(NC(=O)CSc2nc3c(c(=O)n2CC)SC(C)C3)cc1 (stereo not given)	1.6	-0.15	0.89	0.14	-0.7	1825	52*	3.0	3.3	5.7	i	i	-9	0	4	Hep lipid drop cells 6.5 µM=714*
O=S(=O)(NCCSCc1c(Cl)cccc1Cl)c1ccc2c(c1)OCCO2	-0.17	-0.15	-0.27	0.15	-0.24	1578	nt	2.0	1.6	4.9	i	i	2	7	4
O=[N+]([O-])c1ccc(N2CCCC2)cc1NCc1ccccc1	-0.68	-0.22	-0.74	0.75	0.23	1689	nt	2.1	2.6	8.2	i	i	-5	4	4
CCOc1ccc(NC(=O)C(C)Oc2ccccc2C(=O)Nc2ccc(C)c(Cl)c2)cc1 (stereo not given)	-0.2	-0.21	-0.21	-0.037	-2.2	863	nt	2.0	1.2	6.1	i	i	-3	3	0
Cc1ccc(Sc2cc(N3CCOCC3)nc(-c3ccccc3)n2)cc1	-0.39	-0.16	0.5	0.052	-1.4	1527	nt	3.4	1.8	9.2	nt	i	-3	0	4
CCCOc1ccc(-c2nc(C#N)c(NCCCn3ccnc3)o2)cc1	-0.3	-0.28	0.015	0.2	-1	1318	nt	2.4	2.6	5.8	i	i	-1	23	-12

Screening data as filed in PubChem.

Some of the compounds tested; rates above refer to the full screens.
